Screens: PubChem, National Center for Advancing Translational Sciences (NCATS)
TRPML1 ag = agonists of human TRPML1 channel; TRPML1-expressing cells, Ca2+ dye fluorescence, FDSS; host cell line not named in the record; reference of the full effect not given here; activation, % (test concentration not listed); 410,000 compounds, 0.12% hits; in the data active = activation above about 50%; inconclusive = about 30% to 50%; inactive = below about 30%; further: 0% is about no effect; the text of the record puts the active cut at 80%
Target sequence (Q9GZU1 whole entry, looked up): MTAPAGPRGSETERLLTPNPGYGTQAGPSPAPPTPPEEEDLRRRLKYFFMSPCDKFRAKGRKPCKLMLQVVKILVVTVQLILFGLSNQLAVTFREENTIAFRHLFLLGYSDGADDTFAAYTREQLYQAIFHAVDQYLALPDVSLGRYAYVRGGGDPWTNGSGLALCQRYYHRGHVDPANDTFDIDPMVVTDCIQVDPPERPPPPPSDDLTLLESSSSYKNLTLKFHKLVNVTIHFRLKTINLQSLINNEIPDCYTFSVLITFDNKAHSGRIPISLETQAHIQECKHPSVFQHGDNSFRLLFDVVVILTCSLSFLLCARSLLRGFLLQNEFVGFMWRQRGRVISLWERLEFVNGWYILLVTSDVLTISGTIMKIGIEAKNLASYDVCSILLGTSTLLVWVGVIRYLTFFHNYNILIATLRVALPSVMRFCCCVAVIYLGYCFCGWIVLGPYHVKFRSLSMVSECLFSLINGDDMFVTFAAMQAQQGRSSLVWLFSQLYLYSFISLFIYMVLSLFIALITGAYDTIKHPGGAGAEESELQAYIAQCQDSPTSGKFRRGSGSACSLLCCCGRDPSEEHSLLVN
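Tetracycline-induced TRPML1-DL cells are seeded and incubated overnight before loading with a no-wash Ca2+ dye and quencher. Agonist activity is taken from the 110 s fluorescence read following compound pin-transfer on an FDSS, before EC80 54-4 challenge.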
ClpP mod = qHTS Assay for Activators of ClpP; ATP-dependent Clp protease proteolytic subunit (Bacillus subtilis (strain 168)), P80244; purified B. subtilis ClpP, FRET peptide cleavage, 20 min; Potency, µM (top dose mostly 57.5 µM), for inactives: at the highest dose activity change, negative = active; 340,000 compounds, 1.9% hits; AID 651965, 2013; active = well fitted falling curve with a large enough effect; inconclusive = small, poorly fitted or top-dose-only effect; inactive = no such curve, though single readings can be large or run the other way; further: potency means the concentration at half of the fitted maximal effect; the source files actives as falling curves though it sought activators and does not explain the sign; nearly all actives have a fitted effect of over 65% in size; many hits overshoot -100%
Target sequence (P80244 whole entry, looked up): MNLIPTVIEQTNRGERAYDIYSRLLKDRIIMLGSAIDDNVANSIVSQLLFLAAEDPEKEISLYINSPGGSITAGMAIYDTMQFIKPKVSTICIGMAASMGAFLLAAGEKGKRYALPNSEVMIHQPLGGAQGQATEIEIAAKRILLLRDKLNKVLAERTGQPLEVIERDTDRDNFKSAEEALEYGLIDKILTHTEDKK
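Buffer: 100 mM Tris/HCl pH8, 100 mM KCl, 0.05% low protease BSA, 2.5% glycerol, 0.01% Tween-20. ClpP 10 microg/mL final; 20 min RT; delta FRET normalized to ADEP and DMSO controls.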
* marks the source's active call; other numbers are inactive results; ? = inconclusive. This is a subset. The share of hits here may be higher or lower than overall.

SMILES	TRPML1 ag	ClpP mod
CC(C)CNC(=O)C1(C)CCCN1C(=O)c1csnn1 (stereo not given)	-0.2	-2.3%
Cc1ccc2nc(CN(C)C(=O)[C@H]3O[C@@H](n4ccc(=O)[nH]c4=O)[C@H](O)[C@@H]3O)[nH]c2c1	-0.7	0.8%
COc1ccc(NC(=O)C2c3ccccc3OCC(=O)N2Cc2ccco2)cc1 (stereo not given)	-0.5	-5.3%
NC(c1csc(Nc2cc(Oc3ccccc3)ncn2)n1)C1CCCCC1 (stereo not given)	0.9	-3.1%
COc1ccc(C(O)c2ncc(-c3cccc(C(F)(F)F)c3)[nH]2)cc1F (stereo not given)	-0.2	-1.5%
CC(=O)Nc1cc(-c2ccccc2N(C)C)cn2c(-c3ccccc3)cnc12	0.1	-25%
CCCCCCCCCC[Si](C)(C)CCC(=O)N[C@@H](Cc1ccc(C)cc1)c1ccccc1	-0.1	-1.0%
CCCNC(=O)c1cc(C2CCCN(S(=O)(=O)c3cccs3)C2)on1 (stereo not given)	-0.9	-4.6%
Cc1cccc(C)c1NC(=O)CN1CCN(c2ccc(F)cc2)CC1	0.0	-2.5%
O=C(NCc1ccncc1)[C@@H]1CCCN1C(=O)[C@H]1CCCN1C(=O)c1ccccc1	-0.6	0.4%
CC(=O)Nc1cc(-c2ccc(C(=O)N3CCOCC3)cc2)cn2c(-c3ccc(S(C)(=O)=O)cc3)cnc12	-1.0	4.8%
C[C@H]1CN([C@@H](C)CO)C(=O)CCCn2cc(nn2)CO[C@@H]1CN(C)C(=O)c1ccc(N2CCN(C)CC2)cc1	-0.1	0.3%
CCSc1nnc(NC(=O)C2CCN(C(=O)c3ccco3)CC2)s1	-0.7	-0.3%
CN(Cc1ccccc1)C(=O)c1ccc(Nc2nc(C(N)COCc3ccccc3)cs2)nc1 (stereo not given)	0.1	-13%
C(=C\c1ccccn1)/c1ccccc1	-0.5	-5.1%
Nc1nc(N)c(N)c(=O)[nH]1	-0.4	3.9%
COc1ccccc1CNc1nc(Nc2ccccc2-n2cccn2)c2sccc2n1	-0.5	5.1%
CC(C)NS(=O)(=O)c1cc(C(F)(F)F)ccc1/C=C/C(=O)O	-0.5	-0.2%
CC(C)=CCC/C(C)=C/CC/C(C)=C/CCC1(C)CCc2cc(O)ccc2O1 (stereo not given)	-0.1	-1.9%
CCN(CC)C(=O)c1cccc(-c2csc(C(O)c3cccc(OC)c3)n2)c1 (stereo not given)	-0.4	1.0%
CC(C)c1ccc(/C=C2\C=Cc3ccccc32)cc1	0.0	-0.6%
COc1ccc(C2Nc3ccc(NC(=O)CO)cc3C(=O)N2Cc2cccc(Cl)c2)cc1COc1ccc(NC(C)=O)cc1 (stereo not given)	-0.3	?
CC(O)(c1cccc(F)c1)c1nc(-c2cccc(C#N)c2)cs1 (stereo not given)	-0.2	-0.2%
COc1cccc(C(C)(O)c2nc(-c3ccc(C)c(C)c3)cs2)c1 (stereo not given)	-0.5	0.5%
Cc1cc(Cl)ccc1C(O)c1ncc(-c2ccc3ccccc3c2)[nH]1 (stereo not given)	-0.8	4.6%
CC1(C(=O)Nc2cccc(Oc3ccccc3)c2)CCN1Cc1cc2ccccc2o1 (stereo not given)	1.1	-1.3%
CCNC(=O)C1(C)CCN(C(=O)c2ccc3ccccc3c2)C1 (stereo not given)	-0.8	0.5%
CC1CC(C)CN(c2oc(-c3ccc(OCc4ccc(Cl)cc4)cc3)nc2C#N)C1 (stereo not given)	-0.3	-0.2%
CN(C)CCNC(=O)c1cccc(-c2cnc3c(NC=O)cc(-c4cccc(F)c4)cn23)c1	-0.7	-12%
OC[C@@H]1CN(Cc2ccc(Cl)cc2)C[C@H](n2cnc3c(NC4CC4)ncnc32)O1	-0.7	0.8%
CC1(C(=O)Nc2cnc3ccccc3c2)CCN1C(=O)CCc1ccccc1 (stereo not given)	-0.7	-6.1%
O=C(Nc1cccc2ccccc12)c1ccc2sc([C@@H]3O[C@H](CO)[C@@H](O)[C@H]3O)nc2c1	-0.2	-4.2%
Cc1cc(Cl)ccc1NC(=O)/N=C1/NC(=O)CS1	-0.4	-0.7%
COC(=O)[C@]12CCCCC=C1N(Cc1ccccc1)C(=O)[C@H](CC(=O)N1CCCCC1)C2	-1.1	-0.8%
CC1(C(=O)NCc2ccccc2)Cc2c(-c3ccc(C(N)=O)cc3)ccnc2O1 (stereo not given)	-0.8	?
CC1(C(=O)NS(=O)(=O)c2ccc3ccccc3c2)CCN1C(=O)Cc1ccc(Cl)cc1Cl (stereo not given)	-0.5	-0.5%
COc1cc(CCN(C(=O)c2cc3ccccc3[nH]2)C(c2ccccn2)c2nc3ccccc3[nH]2)cc(OC)c1 (stereo not given)	0.4	-24%
Cc1c(C(=O)NCc2ccc(F)cc2)sc(=O)n1Cc1ccccc1	2.2	4.3%
COc1ccc(CN2C[C@@H](CO)O[C@@H](n3cnc4c(NCCCO)ncnc43)C2)cc1	-0.3	1.1%
CC(=O)CC1c2cc(F)ccc2C=C(c2ccsc2)N1c1ccc(-c2cccnc2)cc1 (stereo not given)	-0.9	4.5%
O=c1oc(=S)oc2c1[C@H](c1ccc(Cl)cc1)O[C@H](C1CCCC1)C2	-0.8	1.6%
OC[C@@H]1CN(CCNc2ccccc2)C[C@H](n2cnc3c(NCc4ccncc4)ncnc32)O1	-0.3	-6.7%
OC[C@H]1O[C@H](c2nc(-c3nc(-c4cccs4)no3)cs2)C[C@@H]1O	-0.1	0.9%
CCCCc1ccc(NC(=O)COC(=O)c2ccccc2OCC(=O)Nc2ccc(Br)cc2)cc1	-0.5	-1.7%
COCCCN1C(=O)C(CC(=O)NCc2cccs2)CC(C(=O)N(C(C)C)C(C)C)=C1C (stereo not given)	0.9	2.2%
Cc1ccc(Nc2nc(NCc3ccco3)nc3nccnc23)cc1Cl	-0.6	-4.2%
CC(C)c1ccc(NC(=O)Nc2nc(C(C)N)cs2)cc1 (stereo not given)	-0.9	1.5%
N#CC(C#N)=NNc1ccc2cn[nH]c2c1	-0.4	-2.1%
CCCC[n+]1c(/C=C/c2ccc(N(C)C)cc2)sc2ccccc21	3.5	-0.5%
COc1ccc(OC)c(NC(=O)C2(C)CCN2Cc2ccsc2)c1 (stereo not given)	-0.5	-1.4%
O=C(CCN1C(=O)c2ccccc2C1=O)c1cnc[nH]1	0.2	-1.4%
COCc1nnc(NC(=O)C2CCN(C(=O)c3ccccc3)CC2)s1	-0.4	1.5%
O=C(C[n+]1cccc2cc(Cl)ccc21)c1ccc2ccccc2c1	4.8	-2.1%
CCCN(C)C1CN(Cc2cn(Cc3cc(C)cc(C)c3)nn2)S(=O)(=O)C1 (stereo not given)	-0.8	-2.6%
COCCNc1ncnc2c1ncn2[C@H]1CN(CCN2CCOCC2)C[C@@H](CO)O1	0.2	-3.1%
Cc1ccc(Cn2c(C)c(C(=O)NCc3cccs3)sc2=O)cc1	-0.9	-1.7%
O=C(O)C1=C/C(=C/C=[N+]2c3cc(O)c(O[C@H]4OC(CO)[C@@H](O)[C@@H](O)[C@@H]4O)cc3C[C@@H]2C(=O)[O-])C[C@H](C(=O)O)N1 (stereo not given in full)	0.0	-1.4%
COc1ccc2c(CN3CCCCCCC3)cc(=O)oc2c1	-0.5	5.2%
CC[n+]1c2ccccc2cc2ccccc21	3.3	4.5%
CN(CCO)c1nc(-c2cccs2)nc2ccccc12	-0.2	6.5%

Single records, as listed above. Values in the order: TRPML1 ag | ClpP mod
O=C(CCN1C(=O)c2ccccc2C1=O)c1cnc[nH]1 as listed: 0.2 | -1.4%
O=C(O)C1=C/C(=C/C=[N+]2c3cc(O)c(O[C@H]4OC(CO)[C@@H](O)[C@@H](O)[C@@H]4O)cc3C[C@@H]2C(=O)[O-])C[C@H](C(=O)O)N1 (stereo not given in full) as listed: 0.0 | -1.4%
CN(CCO)c1nc(-c2cccs2)nc2ccccc12 as listed: -0.2 | 6.5%

(next part)
SMILES	TRPML1 ag	ClpP mod
CC(C)C[C@H]1CN(CCCC[C@H]2CNC(=O)C(=O)N2CCc2ccccc2)C(=O)C(=O)N1CCC1CCCCC1	-1.0	2.9%
COc1cccc(C(O)c2nc(-c3ccccc3OC)cs2)c1 (stereo not given)	-0.4	-5.7%
CC(=O)Nc1cc(-c2ccc(F)cc2)cn2c(-c3ccc(F)cc3)cnc12	-0.5	-21%
CCOc1ccc(Cl)cc1-c1cc(C(=O)NCc2cc(C(F)(F)F)cc(C(F)(F)F)c2)[nH]n1	0.6	-14%
COc1ccc(NC(=O)c2cc(C3CCCCN3C(=O)C3CCCCC3)on2)c(C)c1 (stereo not given)	0.4	-2.3%
Cc1ccc2c(c1)C1(SC(C)C(=O)N1c1ccc(Cl)cc1)C(=O)N2 (stereo not given)	-1.2	1.8%
OC(c1ccccc1)c1nc(-c2cnc3ccccc3c2)cs1 (stereo not given)	-0.5	-21%
Cc1cccc(C)c1-n1nnnc1C1c2ccccc2C(=O)N1C1CC1 (stereo not given)	-0.4	2.1%
OC(c1ccccc1)c1nc(-c2cc3ccccc3o2)cs1 (stereo not given)	0.0	-13%
OCc1ccc(-c2cccc3nccn23)cc1	-0.3	4.6%
COc1ccc(S(=O)(=O)NC(=O)C2(C)CCN2C(=O)C2CC2)cc1 (stereo not given)	-0.6	1.7%
C=C1C[C@@H]2C[C@@H]2CN(S(=O)(=O)c2ccc(C)cc2)[C@@H]1COCc1ccccc1	0.7	1.0%

Laid out differently: results already given.
CC(C)C[C@H]1CN(CCCC[C@H]2CNC(=O)C(=O)N2CCc2ccccc2)C(=O)C(=O)N1CCC1CCCCC1
  TRPML1 ag = -1.0 | ClpP mod = 2.9%
OCc1ccc(-c2cccc3nccn23)cc1
  TRPML1 ag = -0.3 | ClpP mod = 4.6%
COc1ccc(NC(=O)c2cc(C3CCCCN3C(=O)C3CCCCC3)on2)c(C)c1 (stereo not given)
  TRPML1 ag = 0.4 | ClpP mod = -2.3%

Back to the main list with the 7 entries that preceded the break.
SMILES	TRPML1 ag	ClpP mod
Cc1ccc2c(c1)C1(SC(C)C(=O)N1c1ccc(Cl)cc1)C(=O)N2 (stereo not given)	-1.2	1.8%
OC(c1ccccc1)c1nc(-c2cnc3ccccc3c2)cs1 (stereo not given)	-0.5	-21%
Cc1cccc(C)c1-n1nnnc1C1c2ccccc2C(=O)N1C1CC1 (stereo not given)	-0.4	2.1%
OC(c1ccccc1)c1nc(-c2cc3ccccc3o2)cs1 (stereo not given)	0.0	-13%
OCc1ccc(-c2cccc3nccn23)cc1	-0.3	4.6%
COc1ccc(S(=O)(=O)NC(=O)C2(C)CCN2C(=O)C2CC2)cc1 (stereo not given)	-0.6	1.7%
C=C1C[C@@H]2C[C@@H]2CN(S(=O)(=O)c2ccc(C)cc2)[C@@H]1COCc1ccccc1	0.7	1.0%
CC(C)(C(=O)N1CCC1(C)C(=O)Nc1ccccc1Br)c1ccccc1 (stereo not given)	-0.3	-1.0%
COc1cccc(-c2cccc(-c3nc(C(=O)Nc4ccc(-c5ccccc5)cc4)cc4c3[C@H](CCO)N(S(=O)C(C)(C)C)C4)c2)c1 (stereo not given in full)	0.1	-12%
CN(C)c1ccc(/C=C2\NC(=O)NC2=O)cc1	0.1	-1.1%
Cc1ccnc2c(Cl)cccc12	-0.6	-1.8%
CSCCC(C(=O)Nc1c(C)cccc1C)N1CCN(c2ccc(F)cc2)CC1 (stereo not given)	-0.3	-1.0%
NC(c1ccccc1)c1csc(NC(=O)Nc2cccc(Cl)c2)n1 (stereo not given)	1.2	0.9%
O=C(NCc1ccccn1)[C@@H]1CCCN1C(=O)[C@@H]1CCCN1	-0.5	0.8%
CC(=O)Nc1ccc(/C=C/c2sc3ccccc3[n+]2CCCCI)cc1	2.2	2.3%
O=C(NC(c1ccc(F)cc1)c1cnccn1)C1CCN(CCOc2ccc(Cl)cc2Cl)CC1 (stereo not given)	3.3	-3.7%
CC(=O)Nc1cc(-c2ccc(C(=O)N3CCOCC3)cc2)cn2c(-c3ccc(F)cc3)cnc12	-0.7	3.8%
CCc1ccc2[nH]c(=O)c(CN(Cc3ccco3)Cc3nnnn3Cc3ccco3)cc2c1	-0.5	-24%
CCOC(=O)C1=CCN(S(=O)(=O)c2ccc(F)cc2)C1c1cccc(C)c1 (stereo not given)	0.3	1.1%
CCCNC(=O)C1(C)CCCN(Cc2c(C)nn(-c3ccccc3)c2C)C1 (stereo not given)	-0.6	0.7%
O=C1NC[C@@H](Cc2ccc(O)cc2)N(CCCCC2CCCCC2)C1=O	-0.5	-2.2%
COc1ccc(NC(=O)C2Cc3c(-c4ccccc4Oc4ccccc4)ccnc3O2)cc1 (stereo not given)	-0.5	-1.5%
Cc1ccccc1-c1cc2nc(NCc3ccc4occc4c3)n(C)c(=O)c2s1	0.1	-28%
OC[C@@H]1CN(Cc2ccncc2)C[C@H](n2cnc3c(N4CCN(c5ccccc5)CC4)ncnc32)O1	-0.4	-3.1%
N#Cc1nc(-c2ccc(OCc3ccccc3Cl)cc2)oc1N1CCC(C(N)=O)CC1	-0.4	4.4%
CC(C)Oc1ccc(-c2nc(-c3cccnc3)no2)cc1	-0.8	-4.0%
COc1ccccc1/C=C/c1cncc(/C=C/c2ccccc2OC)c1	0.4	-7.4%
OC(c1cccnc1)c1nc(-c2ccc3c(c2)OCO3)cs1 (stereo not given)	-0.7	-1.6%
S=C1NCc2cncnc2N1	-0.1	2.3%
